Source: PubChem
TRPV1 potentiator – enhances activation of the human vanilloid receptor TRPV1 | Q8NER1 | TRPV1-expressing cells, Fluo-8 calcium influx, capsaicin EC20 potentiation; host cell line not named in the record; control for the full effect not named in the record | potentiation, % at 8.33 µM | actives 0.02% (n = 320,000) | AID 540277; active means potentiation above 80%; inconclusive means 30% to 80%; inactive means below 30%; note: 0% is about no effect
Target sequence (Q8NER1 whole entry, looked up): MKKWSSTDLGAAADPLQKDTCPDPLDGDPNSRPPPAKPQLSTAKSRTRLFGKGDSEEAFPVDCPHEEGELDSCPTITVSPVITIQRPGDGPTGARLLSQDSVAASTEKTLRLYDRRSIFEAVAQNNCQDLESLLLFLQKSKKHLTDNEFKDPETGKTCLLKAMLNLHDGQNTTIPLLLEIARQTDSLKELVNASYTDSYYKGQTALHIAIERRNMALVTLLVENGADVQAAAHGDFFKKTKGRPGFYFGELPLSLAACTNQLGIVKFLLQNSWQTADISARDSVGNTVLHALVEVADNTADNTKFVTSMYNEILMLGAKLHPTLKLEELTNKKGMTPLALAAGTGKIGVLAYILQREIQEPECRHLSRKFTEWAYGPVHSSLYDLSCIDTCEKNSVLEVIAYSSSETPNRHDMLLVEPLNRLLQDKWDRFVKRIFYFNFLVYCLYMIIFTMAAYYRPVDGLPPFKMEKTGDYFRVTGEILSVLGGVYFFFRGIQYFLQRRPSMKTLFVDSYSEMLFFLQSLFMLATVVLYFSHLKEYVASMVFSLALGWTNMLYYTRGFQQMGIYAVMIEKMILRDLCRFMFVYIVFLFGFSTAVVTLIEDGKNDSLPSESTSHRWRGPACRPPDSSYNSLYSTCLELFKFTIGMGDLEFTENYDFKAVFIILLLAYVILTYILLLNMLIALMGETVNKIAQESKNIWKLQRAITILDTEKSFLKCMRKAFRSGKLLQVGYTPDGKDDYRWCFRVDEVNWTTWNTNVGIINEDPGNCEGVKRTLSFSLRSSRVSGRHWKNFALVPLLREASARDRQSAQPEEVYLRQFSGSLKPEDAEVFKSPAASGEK
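Cells expressing TRPV1 were dye-loaded with Fluo-8 and read kinetically: 10 s baseline, 3 min after compound (agonist portion), then 2 min after EC20 capsaicin (allosteric enhancer portion). Calcium-bound dye fluorescence at 480/520 nm.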
Menin-MLL FL inh – displaces fluorescein MLL peptide from human menin. Fluorescence polarization, fluorescein-MLL peptide displacement from menin. FP activity change, % at 61.4 µM. 290,000 tested, under 10 active; inconclusive = falling polarisation curve, or a change in total fluorescence; inactive = total fluorescence flat and polarisation flat or rising; no compound was filed as active; the % refers to the polarisation; negative = inhibition;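 note: % of control where 0% means no effect; inhibitors lower the polarisation; unlabelled MLL peptide was the positive control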
D2 potentiator – potentiates the human D2 dopamine receptor allosterically; P14416; DiscoveRx D2 beta-arrestin cells, luminescence, 90 min; 100% = 57 uM dopamine signal; potentiation, % (no concentration beside the values); actives 0.23% (n = 360,000); AID 624464; active = potentiation of 50% or more; inconclusive = 30% to 50%; inactive = 30% or less;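 note: compound concentration not given in the record; tested on top of an EC20 dose of dopamine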
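PathHunter beta-arrestin assay in DiscoveRx D2 cells. Compounds were added with an EC20 of dopamine (50 nM final) for 90 min at 37 deg C. Luminescence was read 1 h after detection reagent, with 57 uM dopamine as the EC100 control.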
gsp antag – antagonizes gsp, the McCune-Albright syndrome mutation. gsp-mutant cells, cAMP HTRF, 30 min; control for the full effect not named in the record. Potency, µM (series often up to 76.9 µM), inactives show at the highest dose activity change, negative = inhibition, most hits filed as inhibitors. actives 0.4% (n = 340,000). AID 624288; active = falling curve of any shape with a large fitted effect; inconclusive = falling curve, mostly with a smaller effect; inactive = flat or rising curve; cell line not stated here;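 note: intracellular cAMP measured with PDE inhibitor Ro 20-1724 present during compound exposure; potency is the fitted concentration of half-maximal effect; % is set by controls: 0 for no effect and ±100 for the full control effect; nearly all actives have a fitted effect of over 65% in size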
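Cells, 2000/well, grown 16–24 h in DMEM 10% FBS with 0.5 mg/ml G418, then compounds plus […] (300 uM addition stock), 30 min at 37C. cAMP read by HTRF (cAMP-d2 and anti-cAMP antibody-K in lysis buffer) after 30 min RT.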
gsp agonist – activates gsp, the McCune-Albright syndrome mutation; gsp mutant cells, cAMP HTRF, 30 min; control for the full effect not named in the record; Potency, µM (highest dose often 76.9 µM), for inactives: at the highest dose activation (cAMP increase), most hits filed as activators; actives 0.13% (n = 340,000); AID 624287; active = well fitted activation curve with a large enough effect; inconclusive = small, poorly fitted or top-dose-only effect, or another doubt; inactive = no such curve, though single readings can be large or run the other way; cell line not stated here;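 note: phosphodiesterase inhibitor Ro 20-1724 added with compounds to block cAMP breakdown; potency is the fitted concentration of half-maximal effect; nearly all actives have a fitted effect of over 60% in size; about a fifth of the inactives were tested at one dose only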
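Cells in DMEM/10% FBS with G418 were pretreated with compounds in DMSO plus […] (300 uM stock) for 30 min at 37C. cAMP was measured by HTRF (cAMP-d2 plus anti-cAMP antibody-K) after 30 min at room temperature.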
ClpP mod – qHTS Assay for Activators of ClpP; ATP-dependent Clp protease proteolytic subunit (Bacillus subtilis (strain 168)), P80244; purified B. subtilis ClpP, FRET peptide cleavage, 20 min; Potency, µM (top dose mostly 57.5 µM), for inactives: at the top dose activity change, negative = active; actives 1.9% (n = 340,000); active = well fitted falling curve with a large enough effect; inconclusive = small, poorly fitted or top-dose-only effect; inactive = no such curve, though single readings can be large or run the other way; note: potency is the fitted concentration of half-maximal effect; the source files actives as falling curves though it sought activators and does not explain the sign; nearly all actives have a fitted effect of over 65% in size; many hits overshoot -100%
Target sequence (P80244 whole entry, looked up): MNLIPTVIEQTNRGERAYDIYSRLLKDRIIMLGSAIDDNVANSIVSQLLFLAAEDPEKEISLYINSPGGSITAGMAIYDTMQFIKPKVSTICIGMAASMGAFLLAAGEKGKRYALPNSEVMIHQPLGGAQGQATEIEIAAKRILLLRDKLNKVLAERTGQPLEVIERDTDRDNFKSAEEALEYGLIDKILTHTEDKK
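FRET quenching reversal measured ClpP activation: 10 microg/mL B. subtilis ClpP at pH 8 with the FRET-FV decapeptide, read at 430 nm after 320 nm excitation. The 20-min minus 0-min signal was scaled between DMSO/no-enzyme wells and ADEP (5.8 microM final).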
Sfp PPTase inh – inhibitors of Bacillus subtilis Sfp phosphopantetheinyl transferase. AID 1490. Biochemical Sfp PPTase activity, qHTS. actives 3.5% (n = 310,000). Potency, µM, for inactives: max response, negative = inhibition, most hits filed as inhibitors; active = well fitted inhibition curve with a large enough effect; inconclusive = small, poorly fitted or top-dose-only effect, or another doubt; inactive = no such curve, though single readings can be large or run the other way;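 note: the enzyme is Sfp with the accession as filed and its product quenches rhodamine fluorescence; potency is the fitted concentration of half-maximal effect; 0% = enzyme reaction without inhibitor and -100% = no enzyme wells; top concentration of the series not given in the record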
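Reaction rates are the 30-min fluorescence difference (ex 525, em 598 nm) in wells containing 15 nM Sfp, 5 uM rhodamine-CoA and 12.5 uM BHQ-2-YbbR at pH 7.6 with 10 mM MgCl2.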
The depositor's hits bear a star; ? = inconclusive; nt = no result given; & = joins results of further samples; [ ] = remark or other dose.

mol	TRPV1 potentiator	Menin-MLL FL inh	D2 potentiator	gsp antag	gsp agonist	ClpP mod	Sfp PPTase inh
O=C(Nc1ccc(Cl)cn1)c1cc(S(=O)(=O)N2CCCCC2)ccc1Cl	14	-3.6	-4	6%	8%	-1.7%	3%
CCOc1ccc(CCNC(=O)COC(=O)/C=C/c2ccccc2OC)cc1OCC	23	nt	-32	-29%	-2%	-10.0%	nt
Cc1c(NC(=O)CSc2nnnn2-c2ccc(F)cc2)c(=O)n(-c2ccccc2)n1C	-1	0.7	-5	12%	0%[15.4 µM]	1.6%	11%
CCOc1ccc(OCC)c(NS(=O)(=O)c2ccc3c(c2)n(C)c(=O)c(=O)n3C)c1	-2	-8.7	0	-2%	?	-1.1%	-14%
CCCN(CCC)CC(=O)Nc1cccc2c1OCO2	0	-1.3	-2	-14%	-48%[inhibitor]	-2.0%	-4%
COc1ccc(C2CC(c3cccs3)=NN2S(C)(=O)=O)cc1OC (stereo unspecified)	1	12	-2	8%	-6%[15.4 µM]	nt	13%
Cc1ccc2c(c1)N(CC(=O)NC1CCCc3ccccc31)C(=O)CO2 (stereo unspecified)	-21	-7.2	-4	-11%	-29%	1.7%	16%
CCOc1c2c(nc3ccc(Cl)cc13)CCC2	-8	1.7	-13	4%	-14%	?	13%
Cc1c(C(=O)OCC(=O)Nc2ccc3c(c2)OCO3)cccc1[N+](=O)[O-]	-7	3.9	-6	-9%	-5%	-2.4%	9%
CCN(CC)C(=O)CN(c1ccc2c(c1)OCO2)S(C)(=O)=O	0	2.1	-5	1%	0%	-1.3%	14%
COc1ccc2c3n([n+]([O-])c2c1)CCN=C3c1ccc(C)cc1	?	nt	-33	3%	nt	-13%	nt
Cc1ccc(S(=O)(=O)N2CCC(C(=O)O)CC2)cc1	4	2.7	-2	10%	-4%	nt	3%
COC(=O)C1=C(C(C)=O)C(c2ccc(C(=O)OC)cc2)n2nnnc2N1 (stereo unspecified)	-4	4.1	6	0%	39%	?	6%
Nc1nonc1/C(=N/O)N1CCCC1	12	9.5	-9	-11%	-37%[inhibitor]	4.8%	16%
C/C=C/c1ccc(OCCCCNCc2ccco2)c(OC)c1	-11	5.6	-19	13%	?	-2.8%	-24%
Cc1[nH]c2c(C(=O)N3CCCC(CCC(=O)NCc4ccccc4F)C3)cccc2c1C (stereo unspecified)	4	2.2	10	-4%	-19%[15.4 µM]	nt	-18%
O=C(CCN1C(=O)C2C3C=CC(C3)C2C1=O)NCC1CCCO1 (stereo unspecified)	-11	4.4	-13	9%	-2%	-1.7%	15%
COc1ccc(CCNC(=O)/C=C/c2ccc(C)cc2)cc1OC	-23	3.0	5	-4%	-12%	-1.7%	3%
COc1ccc(OCCCSc2ncccn2)cc1	3	4.6	2	3%	10%	-1.9%	11%
Cc1cnc(CNC(=O)c2ccc3oc(C(C)C)nc3c2)[nH]1	1	nt	-19	7%	?	-4.7%	0%
C=CCN1C2CCCC1CC(NC(=S)Nc1ccc(Cl)cc1)C2 (stereo unspecified)	2	0.9	-17	10%	6%	-0.6%	0%
CCC(=O)Oc1ccc2c(C)c(Cl)c(=O)oc2c1	-24	-2.0	-4	-4%	22%	43%	11%
COc1ccc(N2C(=O)CSC2c2ccc(F)cc2)cc1 (stereo unspecified)	-1	?	6	7%	0%[15.4 µM]	nt	-2%
COc1cccc(OC)c1C(=O)Nc1ccc(N2CCN(C(=O)c3cccs3)CC2)cc1	-1	-0.1	2	-2%	?	-3.6%	14%
COc1cc(CC(=O)NCCCc2ccccc2)cc(OC)c1OC	-15	-0.5	-8	2%	-5%[15.4 µM]	nt	16%

Remaining list, next part:
mol	TRPV1 potentiator	Menin-MLL FL inh	D2 potentiator	gsp antag	gsp agonist	ClpP mod	Sfp PPTase inh
COc1ccc(-c2coc3cc(OC(=O)N4CCOCC4)ccc3c2=O)cc1	-14	-0.3	-8	-8%	-16%[15.4 µM]	nt	-12%
O=C(Nc1ccccc1Cl)NN1CCCCCC1	nt	nt	-7	1%	?	nt	nt
Clc1ccccc1-c1ncc(-c2ccccc2)o1	5	0.1	12	-4%	-19%	4.3%	-8%
COCCNC(=O)COc1ccc(C)cc1C	1	1.2	5	3%	-4%	190%	18%
Cc1cc(Cl)ccc1OC(C)C(=O)OCC(=O)c1ccc[nH]1 (stereo unspecified)	nt	nt	8	2%	-30%[inhibitor]	-3.4%	nt
COc1cccc(C(=O)NC(=S)N2c3ccccc3CC2C)c1OC (stereo unspecified)	-1	2.0	-9	-22%	-28%	nt	16%
O=c1c2ccccc2oc2cc(-c3ccc4cc[nH]c4c3)ccc12	nt	nt	-9	9%	?	3.7%	nt
O=C(COC(=O)c1cccc(S(=O)(=O)NCc2ccccc2)c1)NCC1CCCO1 (stereo unspecified)	5	1.7	1	-1%	3%	nt	17%
CCc1cccc2c1NC1(CCCC1)CC2C (stereo unspecified)	-5	9.3	-10	-3%	?	nt	56µM*
Cc1cc2cc3c(cc2nc1SCC(=O)N1CCOCC1)OCO3	-11	nt	-10	-16%	8%[15.4 µM]	nt	7%
COc1cccc(N2CC(NC(=O)C(=O)c3c[nH]c4ccccc34)CC2=O)c1 (stereo unspecified)	-2	nt	-3	-15%	1%	-0.6%	nt
Cc1ccc(-c2nc(N)sc2C)cc1	-2	-4.3	-9	3%	-56%[inhibitor]	-0.1%	7%
Cc1ncoc1C(=O)NC1CC(C)(C)Cc2c1cnn2-c1ccc(F)cc1 (stereo unspecified)	2	nt	-9	2%	1%	1.1%	15%
Cc1cc(C)c(S(=O)(=O)Nn2cnnc2)c(C)c1	-3	-0.6	-4	-4%	?	nt	14%
Fc1ccccc1-n1[nH]nnc1=S	7	3.0	-11	7%	-5%	0.8%	25µM*
CCc1ccc(NC(=O)CNC(=O)Cn2ccc3ccccc3c2=O)cc1	19	0.4	-7	8%	3%	nt	19%
O=C(Nc1ccccc1C(F)(F)F)c1ccc(F)c(S(=O)(=O)N2CCOCC2)c1	3	2.2	-17	2%	-26%	2.0%	-3%
N=c1ccn2c(n1)OC1C(O)C(CO)OC12 (stereo unspecified)	22	1.7&1.9&2.7	2	5%	23%	1.7%	14%&11%&30%
COc1ccc(N2C(=O)C3CCCN3C2c2ccccc2)cc1Cl (stereo unspecified)	6	2.9	-7	-7%	-37%[inhibitor]	0.8%	2%
CCCCn1c(=O)nc2n(-c3ccccc3C)c3ccccc3cc-2c1=O	?	-0.1	2	?	3%	18µM*	-23%
O=C(CSc1ccccc1)NNC(=O)c1ccccc1O	-9	nt	2	12%	-72%[inhibitor]	-11%	-3%
COc1cccc(C(=O)Nc2cccc(-c3nnc(-c4ccccc4)o3)c2)c1	nt	nt	22	?	-46%[inhibitor]	7.8%	nt
COc1ccc([C@H]2C[C@@H](O)[C@H](n3cc(COC(=O)c4ccccc4)nn3)CN2CC2CCCCC2)cc1	nt	nt	-5	nt	-14%	-6.1%	nt
COc1ccc2ccccc2c1CNC(=O)CC1C(=O)NCCN1CC(C)C (stereo unspecified)	0	-1.1	-4	-1%	-4%[15.4 µM]	nt	8%
CN(C)CCNC(=O)C(=O)NCC1OCCN1S(=O)(=O)c1cc(F)ccc1F (stereo unspecified)	-8	nt	-2	-3%	-2%	-0.5%	16%

More records:
mol	TRPV1 potentiator	Menin-MLL FL inh	D2 potentiator	gsp antag	gsp agonist	ClpP mod	Sfp PPTase inh
CCc1ccc(CNC(=O)C2CCN(c3nnc(C)c4c(C)n(-c5ccc(C)cc5)nc34)CC2)cc1	10	3.9	-9	-5%	?	3.7%&2.3%	-28%
Cc1cc([N+](=O)[O-])nn1CC(=O)Nc1ccccn1	19	1.6	-13	8%	19%[15.4 µM]	nt	23%
CCc1nnc(NC(=O)Cn2nc(-c3ccccc3OC)ccc2=O)s1	3	1.8	-6	-5%	-21%	-0.3%	-4%
Fc1cccc(Nc2nc(Cl)nc(Cl)n2)c1	5	-2.0	1	6%	-39%[inhibitor]	-0.4%	-13%
CC(Sc1ccc([N+](=O)[O-])cn1)C(=O)Nc1nccs1 (stereo unspecified)	-10	0.7	-1	-3%	-2%	1.3%	-27%
CCOC(=O)CNC(=O)C1CCCN(c2ncccn2)C1 (stereo unspecified)	0	4.7	8	5%	-11%	?	17%
CCOC(=O)N1CCC(NC(=O)c2ccc3c(c2)N(Cc2ccc(C)cc2)CCS3)CC1	-8	6.7	-4	-12%	25%	4.7%	9%
N#Cc1nc(-c2ccc(Cl)cc2)oc1N1CCCCC1	0	-1.7	-15	-16%	-11%	22%	?
CC1=C(C)C(=O)C(N2CCOCC2)=CC1=O	7	4.1	-9	-3%	-22%	-1.3%	14%
CCCCN(C)C1CCN(C(=S)Nc2cccc(SC)c2)CC1	-8	-1.0	-7	-1%	-11%	nt	12%
COCCCN(C(=O)C1CCC1)c1c(N)n(Cc2ccccc2)c(=O)[nH]c1=O	-6	nt	-18	4%	-3%	-1.3%	nt
Cc1cccc(C(=O)Nc2cccc3c2CCCC3)c1	-12	-0.6	-9	-3%	1%[15.4 µM]	2.6%	23%
NC(=O)c1ccc(SCC(=O)OCC(=O)NCC2CCCCC2)c([N+](=O)[O-])c1	-7	nt	-8	-10%	-19%	0.9%	nt
